Vaccinia inh: blocks a specific stage of Vaccinia orthopoxvirus infection, primary screen, cell-based, single point. AID 1053133, 2014. 0.01% of 89,000 active. Vaccinia-infected cells, mCherry/Venus stage reporter fluorescence; hits give low values; some inactives read as strong as hits. activity change (mCherry), % (test concentration not listed);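 active means mCherry past -33% and 40 or more points under the early reporter, replicates agreeing; inconclusive means past -33% without that gap or agreement; tested in A549 cells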;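 further: scaled between vehicle wells and reference inhibitor wells; 23 nL library stock went into each well; one replicate is shown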
Vaccinia inh Venus: second read-out of Vaccinia inh, no call of its own (marks repeat the call); activity change (Venus), %; measured here: Venus reporter, other viral stage;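 negative = less Venus signal; first of two replicates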
* marks the source's active call; other numbers are inactive results; u = inconclusive; x = no result given. A portion of the library, so the mix of outcomes need not match the whole.

SMILES	Vaccinia inh	Vaccinia inh Venus
C[C@@H]1CN([C@@H](C)CO)C(=O)c2cccc(NC(=O)Nc3ccc(C(F)(F)F)cc3)c2O[C@@H]1CN(C)Cc1ccc(-c2ccccc2)cc1	u	x
COc1ccc(NC(=O)Nc2ccc3c(c2)C(=O)N([C@@H](C)CO)C[C@@H](C)[C@@H](CN(C)S(=O)(=O)c2cn(C)cn2)O3)cc1	36.0	15.7
CC(C)c1cn(CC[C@@H]2CC[C@@H](NC(=O)C3CCCC3)[C@@H](CO)O2)nn1	-13.7	-1.3
C[C@@H]1CN([C@@H](C)CO)C(=O)Cc2cc(NS(=O)(=O)c3ccccc3)ccc2O[C@H]1CN(C)Cc1ccncc1	4.0	4.9
Cc1noc(C)c1NC(=O)Nc1ccc2c(c1)C(=O)N([C@H](C)CO)C[C@@H](C)[C@@H](CN(C)C)O2	11.3	7.6
CCNC(=O)C[C@@H]1CC[C@H]2[C@@H](COC[C@@H](O)CN2C(=O)C2CC2)O1	2.9	6.8
N#C[C@@H]1[C@@H](c2ccc(C3=CCCC3)cc2)[C@@H](CO)N1C(=O)c1cccc(F)c1	3.8	9.4
C[C@@H]1CCCCO[C@@H](CN(C)C(=O)Nc2ccccc2)[C@H](C)CN([C@H](C)CO)C(=O)c2cc(NC(=O)Nc3ccc(C(F)(F)F)cc3)ccc2O1	-29.5	-22.4
O=C(C[C@H]1CC[C@@H](NC(=O)Nc2ccc(C(F)(F)F)cc2)[C@H](CO)O1)NCc1ccccn1	0.6	5.9
CN(C)C(=O)c1ccc(-c2ccc([C@@H]3[C@@H](CO)N(C(=O)C4CCCCC4)[C@H]3C#N)cc2)cc1	-22.9	-7.1
C[C@@H]1CCCCO[C@H](CN(C)S(=O)(=O)c2ccc(F)cc2)[C@@H](C)CN([C@@H](C)CO)C(=O)c2cc(NS(C)(=O)=O)ccc2O1	1.6	2.5
COc1ccccc1C#Cc1ccc([C@H]2[C@@H](CO)N(C(=O)C3CCCC3)[C@H]2C#N)cc1	-20.3	-16.1
O=C(NCC1CCCCC1)[C@@H]1[C@@H](CO)[C@@H]2Cn3c(cccc3=O)[C@H]1N2C(=O)c1ccncc1	11.1	7.7
O=C(C[C@@H]1C=C[C@H](NC(=O)Nc2cccc(F)c2)[C@H](CO)O1)NCC1CC1	14.3	10.9
CC(C)NC(=O)NCC[C@H]1CC[C@H](NC(=O)CCN2CCCCC2)[C@@H](CO)O1	8.6	5.8
Cc1noc(C)c1NC(=O)Nc1ccc2c(c1)C(=O)N([C@@H](C)CO)C[C@@H](C)[C@H](CN(C)Cc1ccc(C(=O)Nc3ccccc3N)cc1)O2	29.6	13.8
Cc1ccccc1-c1ccc([C@H]2[C@H]3CN(C(=O)Nc4cccc(F)c4)CCCCN3[C@H]2CO)cc1	u	x
C[C@@H]1CN([C@H](C)CO)S(=O)(=O)c2ccc(-c3cccc(C(=O)N(C)C)c3)cc2O[C@H]1CN(C)Cc1ccc2c(c1)OCO2	u	x
COc1ccc(NC(=O)Nc2ccc3c(c2)C(=O)N([C@H](C)CO)C[C@H](C)[C@H](CN(C)S(=O)(=O)c2ccc(C)cc2)O3)cc1	8.5	9.0
O=C(C[C@H]1CC[C@H](NC(=O)C2CCC2)[C@@H](CO)O1)NCc1ccncc1	-2.0	-4.0
COc1ccc(NC(=O)Nc2ccc3c(c2)C(=O)N([C@@H](C)CO)C[C@H](C)[C@@H](CN(C)C(=O)NC(C)C)O3)cc1	12.8	17.5
CO[C@@H]1CN(C)C(=O)c2cc(NC(=O)C3CCCCC3)ccc2OC[C@H](C)NC[C@@H]1C	7.9	19.5
CCCC#Cc1ccc2c(c1)O[C@H](CN(C)S(C)(=O)=O)[C@H](C)CN([C@H](C)CO)S2(=O)=O	-11.8	-12.1
COCC(=O)Nc1ccc2c(c1)OC[C@H](C)N(Cc1cccc(F)c1)C[C@@H](C)[C@H](OC)CN(C)C2=O	2.6	12.9
Cc1noc(C)c1S(=O)(=O)Nc1ccc2c(c1)C(=O)N([C@H](C)CO)C[C@@H](C)[C@H](CN(C)CC1CC1)O2	-2.5	3.1
COc1ccc(NC(=O)Nc2ccc3c(c2)C(=O)N([C@H](C)CO)C[C@H](C)[C@@H](CN(C)Cc2ccc(C(F)(F)F)cc2)OCCCC[C@@H](C)O3)cc1	u	x
Cc1ccc(CN2CC(=O)N3[C@@H](CO)[C@H](c4ccc(Br)cc4)[C@@H]3C2)cc1	41.2	15.7
COc1ccc(S(=O)(=O)N(C)C[C@H]2Oc3ccc(NC(=O)CCN4CCOCC4)cc3C(=O)N([C@H](C)CO)C[C@@H]2C)cc1	15.6	4.8
C[C@@H]1CN([C@@H](C)CO)C(=O)c2cccc(NS(=O)(=O)c3ccc(Cl)cc3)c2O[C@@H]1CN(C)Cc1ccccc1	-5.3	-7.2
CCCC#Cc1ccc([C@@H]2[C@H](CO)N3CCCCN(Cc4cncnc4)C[C@@H]23)cc1	-17.4	-10.7
C[C@@H]1CN([C@@H](C)CO)C(=O)Cc2cc(NS(C)(=O)=O)ccc2O[C@@H]1CN(C)C(=O)Nc1ccc(C(F)(F)F)cc1	10.1	3.6
C[C@@H]1CN([C@H](C)CO)C(=O)c2cc(N(C)C)ccc2O[C@H]1CN(C)C	14.9	6.7
C[C@@H]1CCCCO[C@@H](CN(C)C)[C@@H](C)CN([C@H](C)CO)C(=O)c2cc(NS(=O)(=O)c3cccs3)ccc2O1	22.7	9.1
C[C@@H](O)C#Cc1ccc([C@H]2[C@H]3CN(S(=O)(=O)Cc4ccccc4)CCCCN3[C@H]2CO)cc1	13.4	14.9
O=C(C[C@H]1C=C[C@@H](NC(=O)c2ccc3c(c2)OCO3)[C@H](CO)O1)NC1Cc2ccccc2C1	9.2	10.9
O=C(C1CCCCC1)N1CC(=O)N2[C@H](C1)[C@@H](c1ccc(-c3cccnc3)cc1)[C@@H]2CO	8.5	4.5
CCCC#Cc1ccc2c(c1)O[C@@H](CN(C)C(=O)C1CC1)[C@H](C)CN([C@H](C)CO)S2(=O)=O	-28.4	-24.2
CN(C)C(=O)c1cccc(-c2ccc3c(c2)[C@@H]2[C@@H](CCN2C(=O)C2CCC2)[C@H](CO)N3)c1	-2.3	4.0
C[C@H](CO)N1C[C@H](C)[C@H](CN(C)C(=O)NC2CCCCC2)Oc2c(NC(=O)Nc3ccc(C(F)(F)F)cc3)cccc2C1=O	u	x
C[C@@H]1CN([C@@H](C)CO)C(=O)c2cc(NC(=O)CCN3CCOCC3)ccc2O[C@H]1CN(C)S(=O)(=O)c1ccccc1	-6.4	3.1
Cc1noc(C)c1S(=O)(=O)Nc1ccc2c(c1)CC(=O)N([C@H](C)CO)C[C@@H](C)[C@@H](CN(C)S(=O)(=O)c1cccs1)O2	5.7	8.1
CC=Cc1ccc2n(c1=O)C[C@@H]1[C@@H](CO)[C@H](C(=O)NCC)[C@H]2N1CC1CCOCC1 (mixture of isomers)	10.7	7.9
C[C@@H]1CN([C@@H](C)CO)C(=O)c2cccc(NS(=O)(=O)c3cccs3)c2O[C@@H]1CN(C)Cc1ccc2c(c1)OCO2	9.2	1.7
C[C@@H]1CN([C@@H](C)CO)C(=O)c2cc(NC(=O)C3CC3)ccc2O[C@@H]1CN(C)Cc1ccc2c(c1)OCO2	2.1	-2.5
COc1ccc(S(=O)(=O)N2CC3(CN(C(=O)CN(C)C)[C@@H](CO)c4c3c3ccc(OC)cc3n4C)C2)cc1	-24.5	-6.0
Cc1noc(C)c1NC(=O)NCC[C@H]1CC[C@@H](NC(=O)Cc2cccnc2)[C@H](CO)O1	6.2	7.8
O=C(NCC[C@@H]1CC[C@H](NS(=O)(=O)c2ccc(F)cc2)[C@H](CO)O1)c1ccccc1F	7.4	16.1
COc1ccccc1-c1ccc2c(c1)O[C@H](CN(C)C(=O)Nc1ccccc1)[C@@H](C)CN([C@@H](C)CO)S2(=O)=O	-17.5	-11.7

Entries of single compounds, looked up by structure:
CC=Cc1ccc2n(c1=O)C[C@@H]1[C@@H](CO)[C@H](C(=O)NCC)[C@H]2N1CC1CCOCC1 (mixture of isomers) as listed: Vaccinia inh = 10.7; Vaccinia inh Venus = 7.9
Cc1noc(C)c1NC(=O)NCC[C@H]1CC[C@@H](NC(=O)Cc2cccnc2)[C@H](CO)O1 as listed: Vaccinia inh = 6.2; Vaccinia inh Venus = 7.8

(further entries)
SMILES	Vaccinia inh	Vaccinia inh Venus
CCC(=O)N1[C@H](CN(C)C(C)=O)[C@@H](c2ccc(-c3ccccc3)cc2)[C@@H]1CO	5.9	9.6
C[C@H](CO)N1C[C@H](C)[C@H](CN(C)S(=O)(=O)c2cn(C)cn2)Oc2ncc(C#Cc3ccc(C(F)(F)F)cc3)cc2C1=O	u	x
C[C@@H]1CN([C@H](C)CO)C(=O)Cc2cc(NC(=O)Nc3ccc(C(F)(F)F)cc3)ccc2O[C@@H]1CN(C)C(=O)Nc1ccc(F)cc1	-23.1	-14.9
C[C@H](CO)N1C[C@H](C)[C@H](CN(C)Cc2cccnc2)Oc2cc(-c3ccncc3)ccc2S1(=O)=O	2.3	-4.8
COC(=O)C[C@@H]1CC[C@@H](NC(=O)c2ccccc2)[C@@H](CO)O1	12.5	15.3
C[C@H]1CN([C@@H](C)CO)C(=O)c2cc(C#CC3(O)CCCC3)cnc2O[C@@H]1CN(C)S(C)(=O)=O	21.1	9.1
O=C(Nc1ccc(F)cc1)N1CCCCN2[C@H](CO)[C@@H](c3ccc(C#Cc4ccccc4)cc3)[C@H]2C1	u	x
O=C(NC1CCC1)[C@@H]1[C@@H](CO)[C@@H]2Cn3c(ccc(-c4ccccc4)c3=O)[C@H]1N2CC1CC1	24.9	17.7
CCNC(=O)C[C@@H]1CC[C@@H]2[C@@H](COc3ccc(NC(=O)C4CCOCC4)cc3C(=O)N2C)O1	1.5	-0.4
COc1cccc(C(=O)Nc2ccc3c(c2)C(=O)N(C)C[C@H](OC)[C@H](C)CN(C(C)=O)[C@H](C)CO3)c1	0.4	4.0
CCCC(=O)Nc1ccc2c(c1)C(=O)N(C)[C@H]1CC[C@H](CC(=O)Nc3cn(C)nc3C)O[C@H]1CO2	0.6	0.0
C[C@@H]1CN([C@H](C)CO)C(=O)c2cc(NC(=O)C3CCCCC3)ccc2O[C@@H](C)CCCCO[C@H]1CN(C)C(=O)CCC(F)(F)F	-16.5	-13.6
CN1C(=O)c2cc(NC(=O)Nc3ccccc3Cl)ccc2OC[C@H]2O[C@@H](CC(=O)NCCCN3CCOCC3)CC[C@H]21	1.2	-4.2
C[C@@H]1CN([C@H](C)CO)C(=O)Cc2cc(NS(=O)(=O)c3ccccc3)ccc2O[C@H]1CN(C)Cc1ccc(-c2ccccc2)cc1	-34.5	-32.7
C[C@H](CO)N1C[C@H](C)[C@@H](CN(C)Cc2ccc(C(F)(F)F)cc2)Oc2ccc(NC(=O)NC3CCCCC3)cc2CC1=O	u	x
C[C@@H]1CN([C@@H](C)CO)S(=O)(=O)c2ccc(C3=CCCC3)cc2O[C@H]1CN(C)Cc1cccc(C(=O)O)c1	4.5	-3.2
COCC(=O)Nc1ccc2c(c1)[C@@H]1C[C@H](CC(=O)NCc3ccc(-c4ccccc4)cc3)O[C@@H](CO)[C@@H]1O2	-1.5	1.9
COCC(=O)N[C@@H]1CC[C@H](CC(=O)NCc2ccc(Cl)cc2)O[C@H]1CO	8.2	6.8
C[C@H]1CN([C@@H](C)CO)C(=O)Cc2cc(NC(=O)CCCN(C)C)ccc2O[C@@H]1CN(C)Cc1ccc(Oc2ccccc2)cc1	-4.9	-21.4
COc1cccc(CNC(=O)c2cc3c(c(-c4cccc(-c5cccc(C#N)c5)c4)n2)[C@@H](CCO)N([S@](=O)C(C)(C)C)C3)c1	-1.8	3.2
CO[C@@H]1CN(C)C(=O)c2cc(NS(=O)(=O)CC(F)(F)F)ccc2OC[C@H](C)N(C(=O)c2ccc3c(c2)OCO3)C[C@@H]1C	20.1	13.5
C[C@@H]1CN([C@H](C)CO)C(=O)Cc2cc(NC(=O)Cn3cnnn3)ccc2O[C@@H]1CN(C)Cc1ccc(Cl)c(Cl)c1	-4.1	-1.0
C[C@H]1CN([C@@H](C)CO)C(=O)Cc2cc(NS(=O)(=O)c3cccs3)ccc2O[C@H]1CN(C)Cc1ccc(Cl)c(Cl)c1	-16.0	-14.0
CC(C)C#Cc1cnc2c(c1)C(=O)N([C@@H](C)CO)C[C@@H](C)[C@@H](CN(C)C(=O)CN1CCOCC1)O2	13.3	9.0
CCN(C[C@@H]1N[C@@H](CO)[C@H]1c1ccc(C2=CCCC2)cc1)C(=O)c1ccncc1	-17.8	-13.5
CN1CCN(C(=O)CN=[N+]=[N-])CC1	21.4	11.9
COc1cc(CN2CC3(CCN(S(=O)(=O)c4cn(C)cn4)CC3)c3c(n(C)c4cc(OC)ccc34)[C@H]2CO)cc(OC)c1	9.5	13.4
C[C@@H]1CN([C@H](C)CO)C(=O)CCCn2nncc2CO[C@H]1CN(C)Cc1ccc(C(=O)O)cc1	9.1	11.5
C[C@@H]1CCCCO[C@@H](CN(C)C(=O)C2CCCCC2)[C@H](C)CN([C@@H](C)CO)C(=O)c2cc(NC(=O)CCC(F)(F)F)ccc2O1	-22.5	-18.2
C[C@H]1CN([C@@H](C)CO)S(=O)(=O)c2ccc(-c3ccncc3)cc2O[C@@H]1CN(C)Cc1ccc(Oc2ccccc2)cc1	-32.8	-24.3
O=C(C[C@H]1CC[C@@H]2[C@H](COC[C@@H](O)CN2C(=O)Nc2ccc(Cl)cc2)O1)NCCc1ccncc1	-9.4	0.5

Four records drawn at random from those above, as already listed:
SMILES	Vaccinia inh	Vaccinia inh Venus
C[C@@H]1CN([C@H](C)CO)C(=O)CCCn2nncc2CO[C@H]1CN(C)Cc1ccc(C(=O)O)cc1	9.1	11.5
COc1cc(CN2CC3(CCN(S(=O)(=O)c4cn(C)cn4)CC3)c3c(n(C)c4cc(OC)ccc34)[C@H]2CO)cc(OC)c1	9.5	13.4
CN1CCN(C(=O)CN=[N+]=[N-])CC1	21.4	11.9
CCN(C[C@@H]1N[C@@H](CO)[C@H]1c1ccc(C2=CCCC2)cc1)C(=O)c1ccncc1	-17.8	-13.5
